From PubChem BioAssay
PrP 5UTR inh = suppresses PrP 5' UTR mRNA reporter expression. cell-based PrP 5' UTR mRNA reporter, plate reader. inhibition, % (test concentration not listed). actives 0.35% (n = 340,000). AID 488862;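 active means every replicate at 50% or more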;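 further: 0 = median of the neutral control wells; tested in H4 reporter cells; numbers are from one replicate; inactives centre near -14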
Mtb hypoxia inh = Mtb hypoxia fluorescent reporter inhibition; actives 0.1% (n = 300,000); fluorescence inhibition, % (no concentration beside the values); M. tuberculosis hypoxia-regulated fluorescent reporter, fluorescence;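 active means 35 to 45% if threefold the growth effect, above 45% if 1.5-fold the growth effect; inactive means the rest, general growth blockers included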;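 further: wells of about 50 µL received 100 nL stock; 0% = vehicle wells and 100% = reference inhibitor wells; whole bacteria with a GFP reporter of the hypoxia response; strong numbers were not always called active; many hits fall short of the cut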
Bead autofluor = compound fluorescence in toxin protease inhibitor counterscreen; compound autofluorescence counterscreen, microsphere flow cytometry; active compounds read high; actives 3.1% (n = 360,000); fluorescence intensity (concentration not given with the values);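 active means at least 3 SD above the mean of all compounds, about 16000 in these data; inconclusive means too few beads counted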;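 further: 100 nL of 1 mM stock went into each well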
ugtP null kill = kills S. aureus RN4220 lacking UgtP | S. aureus RN4220 ugtP deletion, OD600 growth, 16 h; some inactives read as strong as hits | growth inhibition, % (no concentration beside the values) | actives 0.54% (n = 330,000) | AID 1259309;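 active means z-score under -3 and OD600 up to 0.15 on both plates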;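 further: plate controls were untreated wells for no effect and antibiotic for full effect; wells of about 80 µL received 100 nL stock; the first replicate is given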
RN4220 kill = kills Staphylococcus aureus RN4220 | S. aureus RN4220 growth, OD600, 16 h | inhibition, % (no concentration beside the values) | actives 0.33% (n = 330,000) | AID 1259311;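 active means z-score of -3 or lower and OD600 up to 0.18 on both plates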;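 further: plate controls were untreated cells for no effect and reference antibiotic for full effect; stock transfer was 100 nL into about 80 µL; one replicate is shown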
BJeLR lethal = kills HRASV12-expressing BJeLR cells; BJeLR (HRASV12) viability, CellTiter-Glo ATP luminescence, 48 h; reference of the scale not given here; inhibition, % (test concentration not listed); actives 0.17% (n = 300,000); AID 1554;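 active means replicate mean above 50%; inconclusive means above 50% but judged a plate artefact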;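 further: 50 nL library stock added to about 25 µL; numbers are from one replicate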
Mtb hypoxia inh growth = second read-out of Mtb hypoxia inh, no call of its own (marks repeat the call); growth inhibition, %; measured here: M. tuberculosis growth (absorbance);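 0% = vehicle and 100% = reference antibiotic; read after six days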
An asterisk follows results filed as active; ? = inconclusive; · = no result given; & = joins results of further samples.

SMILES	PrP 5UTR inh	Mtb hypoxia inh	Mtb hypoxia inh growth	Bead autofluor	ugtP null kill	RN4220 kill	BJeLR lethal
Cc1ccc(S(=O)(=O)N(CC2CO2)c2ccccc2[N+](=O)[O-])cc1 (configuration not stated)	-19	-1	10	?	1	5.0	4
CCOC(=O)Cn1nc(C)n(-c2cccc(Cl)c2)c1=O	1	16	3	3200	6	7.9	5
O=C(NC1CCN(C(=O)NCc2ccccc2)CC1)c1ccc(F)cc1	11	4	9	6064	14	2.7	-3
CCc1nc(NCCC(C)C)c2nnn(Cc3ccccc3)c2n1	-43	13	8	3619	13	2.3	-2
CN1C(C(=O)Nc2ccc(F)cc2F)=CC(c2ccco2)=NS1(=O)=O	-16	·	·	5325	10	4.0	-8
CCOC(=O)C1(CC)NC(c2ccc(OC)c(OC)c2)C2C(=O)N(c3cccc(C(C)=O)c3)C(=O)C21 (configuration not stated)	-9	12	5	3492	0	3.9	8
O=C(Cn1c(=O)oc2ccccc21)Nc1nc(-c2ccc(Br)cc2)cs1	-19	·	·	1933	·	·	-5
Cc1ccc(NC(=O)c2c(C)nc(Nc3nc4ccccc4o3)nc2C)cc1	-29	6	9	4364	-18	1.6	6
COc1ccccc1NC(=O)N(CCCN1CCOCC1)Cc1cc2cc3c(cc2[nH]c1=O)OCO3	-2	14	8	·	-2	-5.7	4
O=C(CN1CCN(S(=O)(=O)c2ccccc2)CC1)NC(=O)NC1CCCCC1	-31	13	1	9455	-1	1.9	15
O=C1Nc2ccccc2N=C(c2ccccc2)c2ccccc21	·	-1	-3	5987	7	0.1	-5
Cc1nn(-c2ccccc2)c(N2CCCC2)c1C=NNC(=O)c1cc(-c2ccccc2)nc2ccccc12	·	-14	4	·	11	-5.5	·
COc1ccccc1CNC(=O)c1c(N)n(CCCN2CCOCC2)c2nc3ccccc3nc12	-4	5	5	18665*	-4	0.0	3
S=c1[nH]nc(Nc2cccc3ccccc23)s1	-4	0	-4	5506	-17	11	6
CC(NCc1cccc(OCc2ccccc2)c1)C(O)c1ccccc1 (configuration not stated)	1	15	29	·	-9	-3.4	3
CCOC(=O)C1CCN(C(=O)C2(NC(=O)Nc3ccc(F)cc3F)CCCCC2)CC1	-25	6	4	5593	14	4.0	-5
CCOc1cc(CNC2CCCC2)cc(Cl)c1OCc1ccc(F)cc1	-10	13	13	8296	-27	-14	13
Cc1cc(N=Cc2cc(Cl)ccc2O)no1	2	-1	1	15827	-3	3.4	2
COc1ccc([C@@H]2[C@@H]3C(=O)N(C(C)(C)C)C(=O)[C@@H]3[C@]3(Cc4ccccc4)C(=O)N(c4cccc(C)c4)C(=O)N23)cc1	-16	·	·	4259	·	·	-2
CCCCNC(=O)c1cc2c(=O)n3cccc(C)c3nc2n(Cc2ccncc2)c1=N	-19	1	7	24016*	4	-0.1	7
Nc1cc(C(=O)OCC(=O)NNC(=O)c2ccccc2)ccc1Cl	-4	7	-1	?	-3	1.0	-1
CCN1C(=O)C(c2ccc(O)cc2)(c2ccc(O)cc2)c2ccccc21	-8	14	11	3412	-3	8.4	-7
O=C(NCc1ccco1)c1cccc(NS(=O)(=O)c2ccccc2F)c1	-19	2	-2	6860	-1	2.1	-6
CSc1ccc(CN2CCC(n3nccc3NC(=O)CCCc3ccccc3)CC2)cc1	-17	3	1	5279	5	0.3	-4
O=C(Cc1cc(=O)[nH][nH]1)N/N=C/c1c(F)cccc1Cl	-16	·	·	2642	·	·	0
CC(=O)Nc1ccc2nc(NC(=O)CCc3ccccc3)sc2c1	-30	16	12	4462	12	7.4	-1
COc1ccc(-n2nnnc2SC(C)C(=O)NCC(=O)Nc2ccc(F)c(F)c2F)cc1 (configuration not stated)	-5	-9	-8	2239	-13	-3.0	0
C/C(CC(=O)Nc1cccc(Br)c1)=N\NC(=O)c1ccc(O)cc1O	-10	·	·	3736	·	·	-6
CCO/C=N/Nc1nc(C(F)(F)F)nc2c1cnn2Cc1ccccc1	-23	·	·	2657	·	·	-3
CCn1c(SCc2nc3ccccc3c(=O)[nH]2)nnc1-c1cccnc1	-1	5	4	23337*	5	5.5	-4
CN1CCN(c2ccc(S(=O)(=O)N3CCCCC3)cc2NC(=O)c2ccc(F)cc2F)CC1	-28	·	·	8801	·	·	2
CCN(CC)CCNC(=O)c1ccc2c(c1NCCO)C(=O)c1ccccc1C2=O	·	11	1	·	8	27	1
CN(CC(=O)Nc1ccccc1Br)C(=O)c1ccc(COc2ccccc2)cc1	-11	-5	4	5953	-6	-4.3	2
Nn1c(SCc2ccccc2)nnc1C1CCCCC1	-14	·	·	4195	10	3.2	5
CC(C)NCC(O)COc1ccc(CC(N)=O)cc1 (configuration not stated)	-10	-8&5&0	-4&-3&4	5812	-2&-2&3	2.5&1.4&6.9	0
Cc1cc(C)c(S(=O)(=O)Nc2ncn[nH]2)cc1C	-16	2	-7	4614	7	4.0	2
COc1ccc(CC(=O)OCC(=O)Nc2ccc(Cl)cc2C)cc1	-21	8	4	3189	7	2.3	·
CC1=CC(C)(C)N(C(=O)CCl)c2cc(C)ccc21	-48	24	9	4215	0	6.6	·
Cc1ccnc2nc(C(=O)Nc3ccc(N4CCOCC4)cc3)nn12	-3	·	·	2622	-6	-2.8	5
O=C(COCc1cc(-c2ccc3c(c2)OCO3)on1)N1CCN(c2ccc(F)cc2)CC1	2	-12	-2	5108	-4	-1.4	-17

Structural class, those above containing bromine.
SMILES	PrP 5UTR inh	Mtb hypoxia inh	Mtb hypoxia inh growth	Bead autofluor	ugtP null kill	RN4220 kill	BJeLR lethal
O=C(Cn1c(=O)oc2ccccc21)Nc1nc(-c2ccc(Br)cc2)cs1	-19	·	·	1933	·	·	-5
C/C(CC(=O)Nc1cccc(Br)c1)=N\NC(=O)c1ccc(O)cc1O	-10	·	·	3736	·	·	-6
CN(CC(=O)Nc1ccccc1Br)C(=O)c1ccc(COc2ccccc2)cc1	-11	-5	4	5953	-6	-4.3	2

Following part:
SMILES	PrP 5UTR inh	Mtb hypoxia inh	Mtb hypoxia inh growth	Bead autofluor	ugtP null kill	RN4220 kill	BJeLR lethal
Cc1c(C(=O)NN=Cc2ccccn2)nnn1-c1nonc1N	·	11	15	·	9	2.1	·
CC(C)NC(=S)NN=Cc1ccc(C(C)(C)C)cc1	·	17	5	·	4	5.0	·
C=CCN=C1N[C@@H](c2ccccc2)C(C(=O)OC)=C(C)N1CC	-22	·	·	3638	·	·	4
COc1ccccc1N1CCN(Cc2ccsc2)CC1	-1	9	-1	16096	11	7.0	-7
COc1ccc(SC[C@H](Cc2ccccc2)N2CCN(CCc3ccccc3)CCC2=O)cc1	-26	·	·	4461	·	·	5
CCN(CC)C(=O)N1CCN(S(=O)(=O)c2c(C)cc(C)cc2C)CC1	-26	14	-2	3421	-1	6.7	8
CC(C)c1ccccc1NC1=CC(=O)CC(C)(C)C1	-17	6	-1	2476	5	3.4	-22
CCOCC(=O)Nc1nnc(Cc2ccc(OC)c(OC)c2)s1	4	5	0	6992	-1	0.2	-4
COCCNC(=O)c1ccccc1NC(=O)C1COc2ccccc2O1 (configuration not stated)	-8	8	1	9298	-1	1.7	-1
O=C(c1ccccc1)c1cn[nH]c1-c1ccccc1O	-29	2	5	3113	-1	5.2	0
COC(=O)c1ccc(Cn2nnc3c(=O)[nH]c(C4CCCN(S(=O)(=O)c5ccccc5Cl)C4)nc32)cc1 (configuration not stated)	-11	11	1	4930	0	9.0	-11
CC(=O)c1c(C)[nH]c(C(=O)Nc2cccc(C(F)(F)F)c2)c1C	-22	4	6	6425	-17	0.3	2
N#CC(=Cc1ccc(Cl)cc1Cl)c1n[nH]c(Cn2cncn2)n1	·	7	11	·	3	9.6	·
COc1ccc(C=NNC(=O)c2ccc(CSc3nc(C)cc(C)n3)cc2)c(OC)c1OC	·	4	7	·	2	5.7	·
CCc1csc(CCNC(=O)C2CCC(=O)N(Cc3ccccc3F)C2)n1 (configuration not stated)	-6	·	·	?	·	·	9
C=CCn1c(SCC(=O)N2CCCC2)nc2cc(C(=O)NCC3CCCO3)ccc2c1=O (configuration not stated)	-6	4	4	16153*	15	5.4	5
COc1ccc(NC(=O)NCCN2C(=O)C3C4C=CC(C4)C3C2=O)cc1 (configuration not stated)	-32	·	·	5612	2	0.2	0
COc1cccc(-c2nc(SC)nc3sc(C(=O)NC(C)(C)C)c(N)c23)c1	0	2	6	3589	18	-4.2	-2
CC(C)(C)c1nnc(NN=Cc2cc(Br)ccc2O)n(N)c1=O	·	-3	2	·	-8	18	·
CC(Oc1ccccc1)C(=O)N1CCN(c2ccc(N3CCOCC3)nn2)CC1 (configuration not stated)	-20	11	1	4401	4	4.4	-2
COc1ccc(OC)c(NC(=O)c2nnn(CCc3ccccc3)c2N)c1	-8	·	·	5303	8	1.5	-5
CN(CCN1CCc2ccccc2C1)Cc1nc(-c2ccc3c(c2)OCO3)no1	-6	5	5	3266	0	4.9	-2
CN1CCN(C2=Cc3ccccc3Sc3cc(F)c(Cl)cc32)CC1	-14	·	·	4649	-11	-0.6	8
CCn1c(O)c(/C=C2\C=Nc3ccccc32)sc1=O	-63	9	10	2158	-4	8.7	3
CCCNC(=O)c1ccc(-c2nc3ccccc3s2)s1	10	16	13	3781	-19	5.1	1
CNC(=S)N/N=C/C1=CCC2CC1C2(C)C (configuration not stated)	-13	·	·	2074	·	·	-20
CCOc1ncccc1C(=O)OCC(=O)Nc1ncc(C(F)(F)F)cc1Cl	-8	·	·	5009	-11	3.9	-2
CC1Cc2ccccc2N1C(=O)CCn1c(=O)oc2ccccc21 (configuration not stated)	-19	7	9	5924	-1	9.4	2
Cc1cc(C)nc(NS(=O)(=O)c2ccc(NC(=O)c3snnc3C)cc2)n1	-5	-10	1	4937	-6	-1.8	-8
Cc1cc(C)c(S(=O)(=O)N2CCOCC2)cc1NS(=O)(=O)c1cc(OCC(N)=O)c(C)cc1Cl	-18	1	1	4199	2	4.1	6
O=[N+]([O-])c1ccc2c(c1N1CCCCC1)=NC1(CCCCC1)[N+]=2[O-]	-18	15	5	4769	6	4.1	-2
COc1ccc(S(=O)(=O)Nc2cc3c4c(c2)CCN4C(=O)CC3)cc1C	-21	1	11	5887	11	8.4	1
CC(C)C1N=C2c3ccccc3N=C(SCc3cc(=O)n4cc(Cl)ccc4n3)N2C1=O (configuration not stated)	5	0	14	4289	7	1.6	6
CCc1ccc(C2C(C#N)=C(N)Oc3n[nH]c(CC(=O)OC)c32)cc1 (configuration not stated)	-29	10	5	3117	-4	13	1
CSC(=NS(=O)(=O)c1cccs1)Nc1ccc(N2CCOCC2)cc1	·	9	10	·	9	6.6	·
Cc1ccc(-n2c(=S)[nH]c3[nH]ncc3c2=O)cc1	-26	4	7	8577	2	7.4	1
CC(=O)NN1C(=O)/C(=C\c2ccc(Cl)cc2)SC1=S	-15	9	0	2463	-2	-3.1	1
CCN(C(=O)COC(=O)C1CCN(S(=O)(=O)c2ccc3c(c2)OCCO3)CC1)C1CCCCC1	-9	0	-2	5591	-7	3.1	-3
COc1ccc(COC(=O)CCNC(=O)c2ccc(Cl)cc2)cc1	-31	-1	-1	6416	8	3.0	9
Cc1c(C(=O)NCCc2ccc(S(N)(=O)=O)cc2)cccc1[N+](=O)[O-]	8	1	3	4286	13	6.6	-5
COc1ccccc1-c1nnc(SCc2ccccn2)n1C	-29	6	1	12137	11	4.1	-5
CC(C)(C)c1ccc(Oc2ccc(NC(=O)C3CC=CCC3C(=O)O)cc2)cc1 (configuration not stated)	-8	1	9	2463	-2	17	-1
COc1ccc(-n2ccnc(SCC(=O)NC3CCCCC3)c2=O)cc1	-16	-9	-2	5224	1	-4.1	-3
CCOC(=O)c1c(C)[nH]c2cc(Br)c(O)cc12	-16	0	5	9889	-9	2.5	-10
Fc1ccc(C2CCCN2Cc2nc(-c3cnccn3)no2)cc1 (configuration not stated)	-21	5	6	3226	6	4.4	5
NC(=O)NC(=O)COC(=O)c1cccc(NS(=O)(=O)/C=C/c2ccccc2)c1	-18	-4	-4	2540	10	2.4	6
CNC(=O)CSc1nnc(COc2ccc(Cl)cc2)n1CCOC	-19	6	6	22197*	0	3.1	-14
CCC(C)NC(=O)c1ccc(NC(=O)C2CCCO2)cc1 (configuration not stated)	-6	2	-1	7003	-1	-2.9	7
Cc1nc(C)c(Oc2ccc(Cl)cc2Cl)c(=O)[nH]1	-42	-2	15	6343	-2	2.1	5
